# Compound activity: PubChem BioAssay, National Center for Advancing Translational Sciences (NCATS)
# A647 fluor = compound fluoresces in the A647 spectral region | Compound fluorescence, A647 channel (570/671 nm), Tris buffer | max dye-equivalent concentration, M | 59,000 tested, under 10 active; active means above 1 µM dye equivalent; inconclusive means 0.1 to 1 µM; inactive means 0.1 µM or less;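 also: values scaled relative to a standard on each plate; highest value over a series up to 38 µM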
#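 Fluorescence read (570 nm ex, 671 nm em) after 15 min RT incubation of compounds in 100 mM Tris buffer, pH 8.0; values expressed as dye-equivalent concentration against a six-point A647 standard series on each plate.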
# Resorufin autofl = compound fluoresces in the resorufin spectral region. Compound fluorescence, resorufin region 547/598 nm, buffer; active compounds read high. max dye-equivalent concentration, M. hit rate 0.04% among 59,000; active = above 10 nM dye equivalent; inconclusive = 1 to 10 nM; inactive = 1 nM or less; a few of its hits are not listed in these tables; also: highest value over a series up to 38 µM
#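 Dye-equivalent concentration values derive from comparing each well's 547/598 nm fluorescence against resorufin standards included on every plate. Incubation was 15 min at room temperature in 100 mM Tris, pH 8.0.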
# TSHR agonist = activates the human thyroid stimulating hormone receptor. P16473. HEK293-CNG-TSHR cells (CNG channel as cAMP sensor), membrane potential dye, cAMP. Potency, µM (doses to about 57.1 µM), for inactives: at the top dose activation, hits mostly activators. hit rate 0.48% among 73,000; active = well fitted activation curve of enough size with the parental cells flat; inconclusive = any curve in the parental cells; inactive = parental cells flat and receptor cells flat or falling; also: potency is read from the fitted curve at half-maximal effect; % of control where 0% means no effect; weak receptor curves with flat parental cells got no call and are not listed
# Target sequence (P16473 whole entry, looked up): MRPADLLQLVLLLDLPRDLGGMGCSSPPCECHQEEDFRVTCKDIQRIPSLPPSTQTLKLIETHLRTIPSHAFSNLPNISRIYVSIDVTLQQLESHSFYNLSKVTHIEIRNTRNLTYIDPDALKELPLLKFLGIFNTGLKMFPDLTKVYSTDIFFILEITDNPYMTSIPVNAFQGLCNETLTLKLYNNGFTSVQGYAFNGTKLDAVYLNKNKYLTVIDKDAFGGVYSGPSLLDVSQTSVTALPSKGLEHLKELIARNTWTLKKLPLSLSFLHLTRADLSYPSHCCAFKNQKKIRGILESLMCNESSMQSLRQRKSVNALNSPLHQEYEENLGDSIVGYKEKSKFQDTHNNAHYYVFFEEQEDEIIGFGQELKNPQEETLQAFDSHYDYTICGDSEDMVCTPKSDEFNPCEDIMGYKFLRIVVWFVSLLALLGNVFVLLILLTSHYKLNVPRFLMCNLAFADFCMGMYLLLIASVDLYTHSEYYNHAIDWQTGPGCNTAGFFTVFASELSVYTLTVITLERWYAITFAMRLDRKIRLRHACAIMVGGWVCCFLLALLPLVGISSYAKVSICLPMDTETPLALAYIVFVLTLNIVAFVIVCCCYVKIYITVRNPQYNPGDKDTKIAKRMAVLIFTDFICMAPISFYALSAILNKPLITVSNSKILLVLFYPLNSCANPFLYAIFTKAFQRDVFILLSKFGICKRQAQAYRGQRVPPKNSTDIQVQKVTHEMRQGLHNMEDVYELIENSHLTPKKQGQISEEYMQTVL
#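 HEK 293 cells stably expressing TSHR and a cAMP-gated CNG channel; parental CNG-only cells as counterscreen. Cells preloaded 60 min with membrane potential dye plus 100 uM RO 20-1724, then compound 30 min; fluorescence read at 590 nm.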
# AID923 = qHTS Assay for Allosteric/Competitive Inhibitors of Caspase-1: Spectroscopic Profiling in AFC Spectral Region; compound fluorescence, AFC spectral region (405/520 nm); almost no hit is shown here; Potency, µM (doses to about 57.5 µM), inactives show at the highest dose fluorescence increase, actives largely listed as activators; hit rate 1.1% among 75,000; AID 923, 2007; active = well fitted activation curve with a large enough effect; inconclusive = small, poorly fitted or top-dose-only effect;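 also: potency is read from the fitted curve at half-maximal effect; 0% is about no effect; scaled to a free AFC standard on each plate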
#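 Compound autofluorescence profiled at 405 nm ex/520 nm em during kinetic caspase 1 run (50 nM enzyme, 5 uM Ac-WEHD-AFC, HEPES pH 7.5, 10 mM DTT). Titration up to 57 uM; baseline from regression intercept, normalized to AFC standard curve.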
# A488 fluor = compound autofluorescence in A488 spectral region. max dye equivalency, M. compound autofluorescence, A488 spectral region, dye equivalency; active compounds read high. hit rate 0.1% among 59,000; active = above 10 nM dye equivalent; inconclusive = 1 to 10 nM; inactive = 1 nM or less; about half of its hits are not listed in these tables;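 also: highest value over a series up to 38 µM; compound alone in buffer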
#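 Readout is A488 dye-equivalent concentration, calibrated by a per-plate six-point Alexa 488 series. Compounds in 100 mM Tris buffer pH 8.0 were incubated 15 min at room temperature. Plates were imaged using 480 nm excitation/540 nm emission filters.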
# Starred values were filed as active, the others as inactive; i = inactive; u = inconclusive; x = no result given; [ ] = another dose, or the depositor's remark. This is a subset (hit frequency here may not be typical).
SMILES,A647 fluor,Resorufin autofl,TSHR agonist,AID923,A488 fluor
CCn1cc(C(=O)NC2CCc3ccccc32)c(=O)c2ccc(C)nc21 (configuration not stated),2.8e-08,i,16%,0.3%,i
Cc1cc(Nc2ccc(F)cc2Cl)n2ncnc2n1,x,x,-7%,10%,x
CCOC(=O)c1cnc(SCc2nc(N)nc(Nc3ccc(C)cc3)n2)nc1N,5.4e-09,i,-7%,-0.3%,i
CCOC(=O)c1cc2sccc2n1CC(=O)N1CCc2ccccc21,6.9e-09,i,u,-0.3%,i
CCCc1cc(=O)n2[nH]c(SCc3ccccc3)nc2n1,2.8e-08,i,11%,-0.8%,i
Cc1cc(C(=O)COC(=O)c2cccs2)c(C)n1-c1c(C)n(C)n(-c2ccccc2)c1=O,8.9e-09,i,-2%,-0.1%,i
COc1ccc2oc(=O)c(C(=O)N3CCN(C45CC6CC(CC(C6)C4)C5)CC3)cc2c1,1e-09,i,3%,15%,i
O=C(Nc1ccccc1)c1ccc(NCc2cccnc2)c(S(=O)(=O)N2CCOCC2)c1,1.3e-08,i,-2%,0.8%,i
Cc1ccc(C)c(Cn2cnc3c(cnn3C(C)(C)C)c2=O)c1,5.4e-09,i,u,1.3%,i
Nc1nnc(SCc2ccc3c(c2)OCO3)s1,1.8e-09,i,6%,1.8%,i
CCOc1ccc(NC(=O)c2oc3ccccc3c2NC(=O)CC)cc1,1e-09,i,10%,0.3%,i
COc1cc(NC(=O)C(F)(F)F)cc(OC)c1,x,x,-14%,-1.2%,x
C=CCn1c(=O)/c(=C\c2ccsc2)s/c1=C(/C#N)C(=O)NCCN1CCOCC1,1.3e-08,i,-1%,0.8%,i
O=C(NC1CCCc2ccccc21)C1CCN(c2c(N3CCCC3)c(=O)c2=O)CC1 (configuration not stated),x,x,-10%,-1.3%,x
COc1cccc(NC(=O)CN2C(=O)C3(OCCCO3)c3ccccc32)c1,2.8e-08,i,0%,0.3%,i
N#Cc1c(NC(=O)CCN2C(=O)c3ccccc3C2=O)oc(-c2ccccc2)c1-c1ccccc1,x,x,u,2.8%,x
COC(=O)CSc1nnnn1-c1cccc2ccccc12,1e-09,i,7%,1.6%,i
CCS(=O)(=O)NCc1csc(C)n1,1e-09,i,-3%[11.4 µM],1.6%,i
Cc1cc(=O)n(CCC(=O)O)c2ccccc12,4.5e-08,i,x,x,i
O=C(Nc1ccc(-c2nnc(-c3ccccc3)o2)cc1)C1CCCO1 (configuration not stated),3.3e-08,i,1%,0.6%,i
COc1cccc2c1OC1(C)CC2/C(=C(\C)O)C(=O)N1 (configuration not stated),1e-09,i,-5%,-0.1%,i
O=C1Nc2ccccc2OC1CC(=O)N1CCN(c2cccc(C(F)(F)F)c2)CC1 (configuration not stated),1.1e-08,i,2%[11.4 µM],0.2%,i
CC(C)(C)n1ncc2c(=O)n(CC(=O)c3ccccc3)cnc21,2.3e-08,i,7%,0.5%,i
COc1ccc(-n2c(SCC(=O)N3CCCC3)nc3c([nH]c4ccccc43)c2=O)cc1,x,x,3%,-0.9%,x
COc1ccc(C)cc1NC(=O)CSc1nnc(COc2ccc(C)cc2)n1Cc1ccco1,4.3e-09,i,u,-0.3%,i
O=S(=O)(c1ccc(F)cc1)N1CCN(c2ncnc3c2cnn3-c2ccccc2)CC1,5.7e-08,i,2%,-2.1%,i
CCOC(=O)C1(C(F)(F)F)N=C(c2cccnc2)OC(N2CCOCC2)=N1 (configuration not stated),3.5e-08,i,3%,-3.0%,i
Cc1ccc(S(=O)(=O)N2CCCCC2)cc1C(=O)Nc1ccc2cn[nH]c2c1,4.3e-09,i,8%,-0.7%,i
COc1ccccc1NC(=O)CSc1nnc(C)n1CCc1ccccc1,2.7e-08,i,0%,4.3%,i
COC(=O)CSc1nnc(CNC(=O)Cc2ccccc2)n1C,2.5e-08,i,1%,-0.2%,i
COC(=O)c1[nH]c2cccc(Cl)c2c1NC(=O)CN1CCCCC1C (configuration not stated),5.6e-08,i,u,-2.0%,i
Fc1ccc(-c2cc3nc4c(c(N5CCOCC5)n3n2)CCCC4)cc1,4.5e-08,i,u,0.0%,i
CCOC(=O)N1CCC(NC(=O)Cn2ncc3ccccc32)CC1,1.8e-08,i,10%,-1.2%,i
O=C(Nc1ccccc1F)N(CCCN1CCOCC1)Cc1cc2cc3c(cc2[nH]c1=O)OCCO3,3.8e-08,i,u,2.0%,i
CC1CCc2c(sc(NC(=O)c3noc4c3CCCC4)c2C(N)=O)C1 (configuration not stated),4.7e-09,i,9%,-0.4%,i
Cc1ccc2c(c1)nnn2C1CCN(C(=O)NC23CC4CC(CC(C4)C2)C3)CC1,3.6e-08,i,0%,0.1%,i
COc1cc(OC)cc(-n2nnnc2SCC(=O)N2CCCc3ccccc32)c1,2e-09,i,u,-0.4%,i
Cc1cc(=O)n2[nH]cnc2n1,1.9e-09,i,x,x,i
COC(=O)CSc1nc(N)c2c3c(sc2n1)CCCC3,1e-09,i,x,x,i
O=C(C1CC1)N1CCN=C1SCc1ccccc1,x,x,0%,1.5%,x
CC(=O)c1cc(CN2C(=O)CCC2=O)cs1,x,x,1%,-4.2%,x
O=C(Cc1cccs1)NCc1cn2ccccc2n1,x,x,-9%,1.4%,x
O=C(Nc1cccc(O)c1)c1cc(S(=O)(=O)N2CCCC2)ccc1Cl,5e-08,i,u,-0.6%,i
CN(C)c1ccnc2sc(C(=O)NCc3ccccc3)c(N)c12,x,x,u,4.2%,x
c1ccc(-c2cc(-c3nn4c(-c5ccco5)nnc4s3)c3ccccc3n2)cc1,1.1e-08,i,u,3.0%,i
CCn1c2ccccc2c2cc(NC(=O)CSc3nnnn3-c3ccccc3)ccc21,2e-09,i,4%,-0.8%,i
COc1ccc(C2N(c3ccc(Cl)cc3)C(=O)C3CCCN32)cc1 (configuration not stated),x,x,9%,2.7%,x
CCc1ccc2oc(=O)cc(CN3CCN(c4ccc(F)cc4)CC3)c2c1,6e-09,i,u,0.7%,i
CCOc1ccc(-n2c(Cc3ccccc3)nnc2SCc2c(C)noc2C)cc1,3.1e-08,i,16%,0.8%,i
Cn1c(=O)[nH]c(=O)c2c1nc(N1CCCCCC1)n2CCN1CCCCCC1,1e-09,i,0%,-1.3%,i
C=CCn1c(C(C)NC(=O)C(C)(C)C)nc2ccccc21 (configuration not stated),1.6e-09,i,-3%[11.4 µM],-0.8%,i
O=C(COc1ccc2oc(-c3ccccc3)cc(=O)c2c1)NCc1ccco1,3e-08,i,2%,-2.0%,i
CCC(C)NC(=O)CC1Oc2ccc(C)cc2NC1=O (configuration not stated),x,x,-13%,-2.0%,x
CCOc1ccccc1CNS(=O)(=O)c1ccc2[nH]c(=O)sc2c1,4.5e-08,i,10%,2.0%,i
CCCCSc1nc(C)c(CC(=O)O)c(=O)[nH]1,4.9e-09,i,10%,0.9%,i
CC1(C)S[C@@H]2[C@H](NC(=O)[C@@H](N)c3ccccc3)C(=O)N2[C@H]1C(=O)O[C@H]1OC(=O)c2ccccc21,4.2e-08,i,1%[25.6 µM],-2.4%[25.7 µM],i
CC(C)(C)NC[C@@H](O)COc1ccccc1C1CCCC1,3.3e-09,i,19%[25.6 µM],1.5%[25.7 µM],i
CC1(C)N([O-])C(c2cccs2)=C[N+]1=O,3.8e-09,i,10%,-2.3%,i
O=C(CN1C(=O)COc2ccccc21)NCCC1=CCCCC1,1.7e-08,i,11%,2.1%,i
Cc1nc2cnc(N(C)C)nc2n(C2CC2)c1=O,3.8e-08,i,9%,21%,i

# Of the compounds above, 8 have fluorine.
SMILES,A647 fluor,Resorufin autofl,TSHR agonist,AID923,A488 fluor
Cc1cc(Nc2ccc(F)cc2Cl)n2ncnc2n1,x,x,-7%,10%,x
COc1cc(NC(=O)C(F)(F)F)cc(OC)c1,x,x,-14%,-1.2%,x
O=C1Nc2ccccc2OC1CC(=O)N1CCN(c2cccc(C(F)(F)F)c2)CC1 (configuration not stated),1.1e-08,i,2%[11.4 µM],0.2%,i
O=S(=O)(c1ccc(F)cc1)N1CCN(c2ncnc3c2cnn3-c2ccccc2)CC1,5.7e-08,i,2%,-2.1%,i
CCOC(=O)C1(C(F)(F)F)N=C(c2cccnc2)OC(N2CCOCC2)=N1 (configuration not stated),3.5e-08,i,3%,-3.0%,i
Fc1ccc(-c2cc3nc4c(c(N5CCOCC5)n3n2)CCCC4)cc1,4.5e-08,i,u,0.0%,i
O=C(Nc1ccccc1F)N(CCCN1CCOCC1)Cc1cc2cc3c(cc2[nH]c1=O)OCCO3,3.8e-08,i,u,2.0%,i
CCc1ccc2oc(=O)cc(CN3CCN(c4ccc(F)cc4)CC3)c2c1,6e-09,i,u,0.7%,i

# More entries follow.
SMILES,A647 fluor,Resorufin autofl,TSHR agonist,AID923,A488 fluor
c1ccc(-c2nc(N3CCN(c4ccccc4)CC3)nc(-n3ccnc3)n2)cc1,4.1e-09,i,u,0.5%,i
CNc1cc(-c2c(C)noc2C)ncn1,1e-09,i,u,-0.4%,i
CCCCCCCCCCCCCCC/C=C\[C@H](O)[C@@H](NC(=O)CCCCCCCCCCCCC)OC (tested in a mixture with another compound),5.2e-08,i,5%,-4.7%,i
COC(=O)c1onc(C(=O)c2ccccc2)c1C(=O)OC,2.3e-08,i,11%,3.8%,i
CC12CCC(C(=O)N3CCN(C(=O)C45CCC(C)(C(=O)O4)C5(C)C)CC3)(OC1=O)C2(C)C,x,x,9%,0.8%,x
COc1ccccc1N1CCN(CCCCNS(=O)(=O)c2cccc3c(N(C)C)cccc23)CC1,1e-09,i,-48%[inhibitor],3.4%,i
COc1ccc(C2C3=C(CC(C)(C)CC3=O)Nc3c2c(=O)[nH]c2nc(C)nn32)cc1 (configuration not stated),1.7e-08,i,10%,2.9%,i
CCCOc1cccc(C(=O)O)c1,1e-09,i,3%,-0.1%,i
O=S(=O)(N1CCOCC1)n1c(Cc2ccccc2)nc2ccccc21,2.2e-08,i,u,-2.1%,i
COCCn1c(=O)c(-c2ccccc2)nc2cnc(OCc3ccccc3)nc21,1e-09,i,u,8.2%,i
COc1ccc(-c2nnc(SCC(=O)NC(C)C)n2CC2CCCO2)cc1OC (configuration not stated),4.8e-08,i,15%,-0.7%,i
CCOc1ccc(NC(=O)CSC2=C(C#N)C(c3ccc4c(c3)OCO4)CC(=O)N2)cc1 (configuration not stated),1e-09,i,x,x,i
CCC(C)(C)n1nnnc1C(c1ccc2ncccc2c1)N1CCN(Cc2ccc3c(c2)OCO3)CC1 (configuration not stated),1.7e-08,i,-9%,-0.9%,i
CC(C)(N)CO[C@H]1C[C@H]2CC[C@@]1(C)C2(C)C,2.3e-08,i,2%[11.4 µM],5.2%[11.5 µM],i
CCOc1ccc(C(=O)Nc2cc(C)on2)cc1OCC,1e-09,i,-15%,1.7%,i
CC(C)OCCCNC(=O)c1cccs1,1e-09,i,-4%,3.0%,i
O=C(OCN1C(=O)c2ccccc2C1=O)c1cccs1,x,x,-1%,-0.9%,x
N#Cc1c(C(F)(F)F)cc(C2CC2)[nH]c1=O,x,x,13%,1.7%,x
COC(=O)[C@H](CCSC)NC(=O)NCc1ccccn1,1.5e-08,i,-2%,0.6%,i
O=C(O)c1ccccc1NCc1ccncc1,1.7e-09,i,6%,-1.3%,i
Cn1cccc1C1(C(F)(F)F)NCCNC1=O (configuration not stated),4.3e-08,i,-4%,-0.7%,i
CC(=O)c1cccc(NC(=O)N2CCCC2C(=O)NCc2ccc(F)cc2)c1 (configuration not stated),1e-09,i,-3%,0.4%,i
COc1ccccc1C1/C(=C(/O)c2cnn(-c3ccccc3)c2C)C(=O)C(=O)N1CCN(C)C (configuration not stated),1e-09,i,x,x,i
COCC(=O)NC1CCN(C(=O)Nc2ccc(Br)cc2)CC1,1e-09,i,-1%[11.4 µM],1.3%,i
